EPAC1 ag val – human EPAC1 agonism, validation; O95398; Potency, µM, for the others: max response, positive = active, usual class: activators; 1% of 16,000 active; EPAC1 Rap1b BODIPY-GDP exchange, fluorescence; active = well fitted activation curve with a large enough effect; inconclusive = small, poorly fitted or top-dose-only effect; inactive = no such curve, though single readings can be large or run the other way;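 note: nearly all actives have a fitted effect of over 70% in size; series mostly up to about 76 or 150 µM; scaled to a cAMP control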
Target sequence (O95398 whole entry, looked up): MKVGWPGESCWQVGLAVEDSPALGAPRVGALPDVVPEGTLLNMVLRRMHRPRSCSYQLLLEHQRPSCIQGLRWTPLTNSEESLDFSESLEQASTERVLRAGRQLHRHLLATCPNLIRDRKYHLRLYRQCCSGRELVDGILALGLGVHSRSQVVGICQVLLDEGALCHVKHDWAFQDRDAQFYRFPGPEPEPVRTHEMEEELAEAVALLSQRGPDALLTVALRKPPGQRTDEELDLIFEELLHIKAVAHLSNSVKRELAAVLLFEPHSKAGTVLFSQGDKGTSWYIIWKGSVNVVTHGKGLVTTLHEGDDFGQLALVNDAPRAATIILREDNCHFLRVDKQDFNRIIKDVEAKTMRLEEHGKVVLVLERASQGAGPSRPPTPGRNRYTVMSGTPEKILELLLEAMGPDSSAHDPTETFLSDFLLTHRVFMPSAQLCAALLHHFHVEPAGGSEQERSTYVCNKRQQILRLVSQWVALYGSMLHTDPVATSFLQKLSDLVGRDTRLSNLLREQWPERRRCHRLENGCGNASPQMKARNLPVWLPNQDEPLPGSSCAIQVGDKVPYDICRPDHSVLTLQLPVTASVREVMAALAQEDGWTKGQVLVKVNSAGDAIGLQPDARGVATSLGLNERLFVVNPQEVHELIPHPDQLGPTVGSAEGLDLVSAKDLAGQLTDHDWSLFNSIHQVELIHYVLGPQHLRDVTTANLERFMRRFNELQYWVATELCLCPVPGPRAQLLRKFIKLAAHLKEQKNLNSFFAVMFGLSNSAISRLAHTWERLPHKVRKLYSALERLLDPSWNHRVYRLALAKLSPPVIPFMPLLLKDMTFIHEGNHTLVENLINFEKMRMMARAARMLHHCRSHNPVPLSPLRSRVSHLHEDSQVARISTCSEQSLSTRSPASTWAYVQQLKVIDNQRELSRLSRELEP
Active calls of the source: *; ? = inconclusive; & = joins results of further samples; [ ] = remark or other dose. % is set by controls: 0 for no effect and ±100 for the full control effect; potency is the fitted concentration of half-maximal effect. These rows are one share of the data; count on the stated rates, not on these rows.

No.	SMILES	EPAC1 ag val
1	Cc1c(C2CCN(CCc3ccccc3)CC2)noc1-c1ccc(Cl)cc1	-9%&7%
2	O=C(O)c1ccc(S(=O)(=O)N(Cl)Cl)cc1	18%
3	CC[C@H](CO)Nc1nc(NCc2ccccc2)c2ncn(C(C)C)c2n1	-24%&2%
4	CC[C@]1(O)C[C@H]2CN(CCC3=c4ccccc4=N[C]3[C@@](C(=O)OC)(c3cc4c(cc3OC)N(C)[C@H]3[C@@](O)(C(N)=O)[C@H](O)[C@]5(CC)C=CCN6CC[C@]43[C@@H]65)C2)C1	20%
5	O=S(=O)(NCCNC/C=C/c1ccc(Br)cc1)c1cccc2cnccc12	-3%&-4%
6	CN(C)c1ncc2ncc(=O)n(C)c2n1	-43%[inhibitor]
7	O=C(NCC1(N2CCOCC2)CCCCC1)c1cnn(-c2nccc(-c3ccco3)n2)c1C1CC1	12%
8	C[C@@]12CCC[C@H]1[C@@H]1CC[C@H]3C[C@@H](O)CC[C@]3(C)[C@H]1CC2	-40%[inhibitor]
9	COc1ccc(CNc2ncnc3ccc(-c4c(C)noc4C)cc23)c(OC)c1	?
10	COc1ccc(-n2c(=O)c(-c3cn(C)c4ccccc34)nc3cnc(N4CCOCC4)nc32)cc1	17%
11	CCNC(=O)c1cc(NC(=O)COC)cc2nc(-c3ccncc3)n(C)c12	11%
12	O=C1CC(c2ccc(O)c(O)c2)Oc2cc(O)cc(O)c21 (stereo not given)	-6%
13	Cc1cc(C)cc(NC(=O)C2CC23CCN(Cc2ccc4ncccc4c2)CC3)c1 (stereo not given)	-3%
14	CCC(=O)O[C@H]1CC[C@H]2[C@@H]3CCc4cc(O)ccc4[C@H]3CC[C@]12C	-160%[inhibitor]
15	COc1ccc(Oc2ncc3nc(-c4cc(F)cc(F)c4)c(=O)n(C)c3n2)cc1	-69%[inhibitor]
16	COc1cc2c(cc1O)CCC1C2CC[C@@]2(C)C1CC[C@@H]2O (stereo not given in full)	8%
17	CN1C[C@H](C(=O)N[C@]2(C)O[C@@]3(O)[C@@H]4CCCN4C(=O)[C@H](Cc4ccccc4)N3C2=O)C[C@@H]2c3cccc4[nH]cc(c34)C[C@H]21	0%&-16%
18	COc1ccc(SC[C@H](C)CN2CC[C@H](C)CCC2=O)cc1	3%
19	c1ccc(CNc2ncnc3ccc(-c4ccoc4)cc23)cc1	1%
20	Cc1noc(C)c1C(=O)N1CCC2(CC1)CN(C(=O)Nc1cccc(F)c1)C2	-55%[inhibitor]
21	Cc1cc(C)nc(S[C@H]2C[C@@H](C(=O)N3CCN(c4ccccc4F)CC3)N(Cc3ccccc3C(F)(F)F)C2)n1	3%
22	C=CCSc1nnc(C2CCCN(Cc3ccccc3O)C2)n1C (stereo not given)	-4%
23	COc1ccccc1N1CCN(CCCNc2c(C)c(=O)n(C)c(=O)n2C)CC1	0%&-12%
24	COc1cc(C)c(CC/C(C)=C/C=C/C(C)=O)c(C)c1C	-6%
25	COc1ccccc1C1CN(CCNC(=O)c2sccc2Cl)Cc2ccccc2O1 (stereo not given)	-3%
26	COc1ccccc1CN1CCCC2(CCN(S(=O)(=O)c3ccccc3)CC2)C1	-64%[inhibitor]
27	N#Cc1cccc(-c2nc(Nc3ccccc3)c3ccccc3n2)c1	-31%[inhibitor]
28	C[C@@H](CN=[N+]=[N-])CN1CC[C@H](C(C)(C)C)CCC1=O	-56%[inhibitor]
29	COc1cc(CNC(=O)CCCCCCC(C)C)ccc1O	-11%&0%
30	CCCC[C@H]1COCCS(=O)(=O)N1Cc1cccc(Cl)c1	-84%[inhibitor]
31	O=C(c1cc(C(F)(F)F)cc(C(F)(F)F)c1)N1CCC2(CC1)CCN(c1ccccn1)CC2	-64%[inhibitor]
32	COc1cccc(Cn2c(=O)c(-c3ccccc3)nc3cnc(N4CCNCC4)nc32)c1	11%
33	CCOC(=O)C(C)Oc1cccc2c(=O)n(CC(=O)Nc3ccc4c(c3)OCCO4)ccc12 (stereo not given)	-4%
34	COc1ncc2ncc(=O)n(Cc3cccs3)c2n1	3%
35	COCC(=O)N1CCC2(CC1)CCN(c1ccc(-c3ccccc3)cc1)CC2	-95%[inhibitor]
36	Cc1ncc2c(c1CNC(=O)CN1CCCC1)CCN(C(=O)c1ccc(F)cc1F)C2	11%
37	CN1CCN(c2ncnc3ccc(-c4ccoc4)cc23)CC1	-36%[inhibitor]
38	CSc1nc(NC2CCCC2)c([N+](=O)[O-])c(NC2CCCC2)n1	-10%
39	O[C@@H](c1cc(C(F)(F)F)nc2c(C(F)(F)F)cccc12)[C@H]1CCCCN1	-55%[inhibitor]
40	CC(=O)OC1CC2C(C)(C)C=CC(=O)[C@@]2(C)C2CC[C@@]3(C)C(c4ccoc4)OC(=O)C4OC43[C@]12C (stereo not given in full)	-10%
41	N[C@@H](Cc1cc(I)c(O)c(I)c1)C(=O)O	-13%
42	O=C(C[N+]1(CCc2ccccc2)CCOCC1)c1ccccc1	-60%[inhibitor]
43	Cc1ccc([N+](=O)[O-])cc1S(=O)(=O)N(C)C	4%
44	COc1ccc(Oc2ncc3nc(-c4ccc(F)cc4)c(=O)n(C4CC4)c3n2)cc1	?
45	O=C(c1cccc(F)c1)N1CCC2(CC1)CCN(c1ccc(-c3ccccc3)cc1)CC2	-55%[inhibitor]
46	C1=C(CN2CCOCC2)COc2c1cccc2OC[C@@H]1CNCCO1	-2%
47	O=NN(CCCl)C(=O)NCCCl	4%&-6%&19%
48	O=C(O)c1ccccc1C(=O)Nc1ccc(S(=O)(=O)Nc2nccs2)cc1	?
49	COC(=O)N1CCC[C@@]2(CCN(C(=O)Nc3cccc(F)c3)C2)C1	-86%[inhibitor]
50	COc1ccc(NC(=O)N2CCCC3(CCN(C(C)=O)CC3)C2)cc1	-15%
51	CNc1ccnc(-c2c(C)noc2C)n1	-26%
52	CCn1c(-c2ccccc2F)nc2cc(C(=O)NCc3ccc(C)o3)cc(NC(C)=O)c21	-6%
53	Cc1cc(C(=O)NCc2nnc3n2CCN(Cc2ccc4c(c2)Cc2ccccc2-4)CC3)c(C)o1	-15%
54	COc1ccc(CNc2cc(-c3ccccc3CN(C)C)ncn2)c(OC)c1	?
55	COc1ccc(-c2c(-c3ccc4c(c3)OCO4)noc2-c2ccsc2)cn1	-5%
56	COc1ccccc1CN1CCCC2(CCN(C(=O)c3c(C)noc3C)CC2)C1	-11%
57	CC(=O)NC(CC(=O)O)C(=O)O (stereo not given)	-4%
58	COCC(=O)N1CCC2(CC1)CN(C(c1ccccc1)c1ccccc1)C2	?
59	Cc1noc(NS(=O)(=O)c2cccc3c(N(C)C)cccc23)c1C	-63%[inhibitor]
60	CCCCCCCCCCCCCCCCCCN(CCCCCCCCCCCCCCCCCC)c1ccccc1	27%

The results go on:
No.	SMILES	EPAC1 ag val
61	C=CCNC(N)=S	-41%[inhibitor]
62	Oc1c(Cl)cc(Cl)c2cccnc12	?
63	CCNC(=O)[C@H]1O[C@@H](n2cnc3c(N)nc(NCCc4ccc(CCC(=O)O)cc4)nc32)[C@H](O)[C@@H]1O	15%
64	Nc1[nH]c(=S)[nH]c(=O)c1N	1%
65	COCCn1c(=O)c(-c2cccs2)nc2cnc(Oc3ccccc3)nc21	?
66	COc1cc(=O)n2c(c1C(=O)N(C)Cc1nonc1C)CCN(C(=O)c1ccc(C)cc1C)CC2	-17%
67	C=CCSCC1Nc2cc(Cl)c(S(N)(=O)=O)cc2S(=O)(=O)N1 (stereo not given)	-19%
68	CN(C)c1ncc2nc(CCc3ccccc3)c(=O)n(C3CC3)c2n1	4%
69	Cc1cc(O)c2c(c1)C(=O)c1cc(O)cc(O)c1C2=O	5%&-11%
70	Cc1cnc(SCc2ccccn2)nc1C1CCCN(C(=O)c2coc3c2C(=O)CCC3)C1 (stereo not given)	12%
71	CCC(C)[C@H]1COCCS(=O)(=O)N1Cc1ccc(Br)cc1 (stereo not given in full)	-124%[inhibitor]
72	COc1ccc(C(=O)NCCc2nnc3n2CCN(CC2CC=CCC2)CC3)cc1 (stereo not given)	-9%
73	Cc1nc2cnc(N3CCOCC3)nc2n(C2CC2)c1=O	-12%
74	CSc1nnc(CCNC(=O)c2ccccc2C(F)(F)F)n1-c1ccc(F)cc1	4%
75	CN(CC1(C)CCCO1)S(=O)(=O)c1ccc(Cl)c(S(N)(=O)=O)c1 (stereo not given)	-6%
76	COC(=O)CC(NC1CCN(c2nc(C)c3cc4c(cc3n2)CCC4)CC1)C(=O)OC (stereo not given)	-11%
77	CN1C[C@H](C(=O)N[C@]2(C)O[C@@]3(O)C4CCCN4C(=O)[C@H](Cc4ccccc4)N3C2=O)C[C@@H]2c3cccc4[nH]cc(c34)C[C@H]21 (stereo not given in full)	1%
78	OC1(c2cccnc2)CCN(Cc2ccc3c(c2)CN(Cc2cccc(F)c2F)CCO3)CC1	0%
79	CNCCCCCCCCSc1nc(C(C)C)ccc1C(=O)c1cccs1	-2%
80	Cc1cnc(-n2ncc(C(=O)NCCc3cccnc3)c2C)nc1-c1ccc(F)cc1	3%
81	CC1Cc2ccccc2C[N+]1(C)CC(=O)c1cccc([N+](=O)[O-])c1 (stereo not given)	-57%[inhibitor]
82	CC(C)C(NS(C)(=O)=O)c1nnc2n1CCN(Cc1cccc3ncccc13)CC2 (stereo not given)	-30%[inhibitor]
83	COCc1ccc(CN2CCOc3ccc(C4=Cc5ccccc5C4)cc3C2)o1	2%
84	OCCN1CCN(Cc2ccc3c(c2)CN(Cc2cccc4ncccc24)CCO3)CC1	9%
85	CCOc1ccc(NC(=O)CC(C)O)cc1 (stereo not given)	1%
86	C[C@]12C=CC(=O)C=C1[C@@H](F)C[C@@H]1[C@@H]2[C@@H](O)C[C@@]2(C)[C@H]1CC[C@]2(O)C(=O)CO	-31%&-8%[inhibitor]
87	CN1CCN(c2ncnc3ccc(-c4cccc(C#N)c4)cc23)CC1	-11%
88	COc1cc(CN2CCOc3ccc(CN4CCC(O)(c5cccnc5)CC4)cc3C2)ccc1F	10%
89	CC(C)C[C@@H](NC(=O)OCC1c2ccccc2-c2ccccc21)C(=O)O	-28%
90	COc1ccc2[nH]cc(CCNc3ccnc(-c4cccc(C#N)c4)n3)c2c1	?

Overlap with the part before: 2 compounds, then new ones.
No.	SMILES	EPAC1 ag val
89	CC(C)C[C@@H](NC(=O)OCC1c2ccccc2-c2ccccc21)C(=O)O	-28%
90	COc1ccc2[nH]cc(CCNc3ccnc(-c4cccc(C#N)c4)n3)c2c1	?
91	N#Cc1ccc(CN2CCCC3(CCN(C(=O)c4cnccn4)CC3)C2)cc1	-58%[inhibitor]
92	COc1cc(=O)n2c(c1C(=O)NC(C)c1ccco1)CCN(C(=O)c1ccc(F)cc1Cl)CC2 (stereo not given)	0%
93	CCCCN1CCC[C@@H]1CNC(=O)c1cc(C#N)c2ccccc2c1OC	4%
94	CCN1CCCC1CNC(=O)c1cnn(-c2nccc(-c3ccccc3OC)n2)c1-c1ccco1 (stereo not given)	12%
95	NC(C(=O)O)[C@H](O)C(=O)O (stereo not given in full)	-11%
96	CN1[C@@H]2CC[C@H]1CC(OC(=O)c1c[nH]c3ccccc13)C2 (stereo not given in full)	-17%
97	COc1ccc(Oc2ncc3nc(-c4ccc(Cl)cc4)c(=O)n(CCC#N)c3n2)cc1	4%
98	Cn1c(=O)[nH]c2nc[nH]c2c1=O	-34%[inhibitor]
99	Cc1cnc(SCc2ccccn2)nc1C1CCCN(C(=O)c2ccc3c(c2)OCO3)C1 (stereo not given)	13%
100	Cc1cc2c(cc1Cl)N(C(=O)Nc1ccc(Oc3cccnc3C)nc1)CC2	0%
101	COc1cccc(Nc2ncc3ncc(=O)n(Cc4ccc(F)cc4)c3n2)c1	-27%
102	COc1ccc2[nH]cc(CCNc3ccnc(-c4ccoc4)n3)c2c1	-59%[inhibitor]
103	Cc1ccccc1Cc1nc2cccnc2n1C1CCN(C(=O)CC2NC(=O)c3ccccc32)CC1 (stereo not given)	-6%
104	Cc1cccc(CNc2ncnc3ccc(-c4cccnc4)cc23)c1	-32%[inhibitor]
105	CS(=O)(=O)N1CCC[C@@]2(CCN(C(=O)Nc3ccccc3)C2)C1	?
106	O=C(c1csnn1)N1CCC[C@@]2(CCN(Cc3cc(C(F)(F)F)cc(C(F)(F)F)c3)C2)C1	-102%[inhibitor]
107	N#CCCn1c(=O)cnc2cnc(Oc3cccc(Cl)c3)nc21	-39%[inhibitor]
108	O=c1onc2n1-c1cc(Br)ccc1OC2	-5%
109	Cc1cc(-c2ccnc(-n3ncc(C(=O)NCC4COCCO4)c3C3CC3)n2)c(C)s1 (stereo not given)	14%
110	Cc1nn(C)cc1CN1CCOc2ccc(C(C)(O)COc3ccccc3)cc2C1 (stereo not given)	-14%
111	COc1ccc(C[C@H](N)C(=O)N[C@H]2[C@@H](O)[C@H](n3cnc4c(N(C)C)ncnc43)O[C@@H]2CO)cc1	-6%
112	COc1cccc(C2(CC(=O)N3CCC(c4nc5ccc(F)cc5[nH]4)CC3)CC(=O)N(C)C2=O)c1 (stereo not given)	-6%
113	Fc1ccc(Nc2ncncc2-c2ccccc2C(F)(F)F)cc1	-12%
114	CC(C)NCC(O)c1ccc(O)c(O)c1 (stereo not given)	?
115	N[C@H](C(=O)O)[C@@H]1CC(Cl)=NO1	?
116	COc1ccc2[nH]cc(CCNc3ncnc4ccc(-c5cccnc5)cc34)c2c1	-5%
117	O=C1CC(c2ccccc2)Oc2ccccc21 (stereo not given)	?
118	NS(=O)(=O)c1cc(Cl)c(Cl)c(S(N)(=O)=O)c1	-14%
119	C[C@@H]1O[C@@H]1P(=O)(O)O	25%
120	COc1ccc(-n2c(=O)c(-c3cccs3)nc3cnc(Nc4ccccc4)nc32)cc1	?

Arranged by value in EPAC1 ag val (descending): some entries from above.
No.	SMILES	EPAC1 ag val
94	CCN1CCCC1CNC(=O)c1cnn(-c2nccc(-c3ccccc3OC)n2)c1-c1ccco1 (stereo not given)	12%
92	COc1cc(=O)n2c(c1C(=O)NC(C)c1ccco1)CCN(C(=O)c1ccc(F)cc1Cl)CC2 (stereo not given)	0%
103	Cc1ccccc1Cc1nc2cccnc2n1C1CCN(C(=O)CC2NC(=O)c3ccccc32)CC1 (stereo not given)	-6%

Screening data: PubChem BioAssay, National Center for Advancing Translational Sciences (NCATS)
